Screening results: PubChem, National Center for Advancing Translational Sciences (NCATS)
VDR inhibitor = Inhibitors of the vitamin D receptor (VDR): qHTS | Vitamin D3 receptor (Homo sapiens), P11473 | VDR-SRC2-3 peptide fluorescence polarization, 2 h | Potency, µM, inactives show max response, negative = inhibition, hits mostly inhibitors | 400,000 compounds, 0.93% hits; active = well fitted inhibition curve with a large enough effect; inconclusive = small, poorly fitted or top-dose-only effect, or another doubt; inactive = no such curve, though single readings can be large or run the other way; note: series mostly up to about 120 µM
Target sequence (P11473 whole entry, looked up): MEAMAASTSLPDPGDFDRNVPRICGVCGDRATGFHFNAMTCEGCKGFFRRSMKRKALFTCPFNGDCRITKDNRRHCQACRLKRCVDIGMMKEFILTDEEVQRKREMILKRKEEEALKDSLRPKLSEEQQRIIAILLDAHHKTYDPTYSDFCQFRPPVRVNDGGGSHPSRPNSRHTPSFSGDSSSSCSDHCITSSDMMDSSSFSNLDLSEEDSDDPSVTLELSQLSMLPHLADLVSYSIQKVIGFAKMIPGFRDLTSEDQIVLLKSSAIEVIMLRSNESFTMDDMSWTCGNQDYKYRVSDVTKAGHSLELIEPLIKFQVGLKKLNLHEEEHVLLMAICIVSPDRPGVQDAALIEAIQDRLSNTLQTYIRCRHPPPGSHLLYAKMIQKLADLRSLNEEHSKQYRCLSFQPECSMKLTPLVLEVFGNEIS
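Signal is fluorescence polarization, reporting how far test compounds block the interaction of VDR with the SRC2-3 coregulator peptide after a 2 h room-temperature incubation.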
An asterisk follows results filed as active; ? = inconclusive; [ ] = dose if it differs, or a comment. % is set by controls: 0 for no effect and ±100 for the full control effect; potency is the fitted concentration of half-maximal effect.

VDR inhibitor	mol
15.9%	CCOc1ccccc1NC(=O)C1CCCN(c2ncnc3onc(-c4ccc(F)cc4)c23)C1 (configuration not stated)
-9.7%	O=C1C2CC=C(Cl)CC2C(=O)N1CC1Cc2ccccc2CO1 (configuration not stated)
4.0%	CCc1ccc(OCC(=O)NNC(=O)c2cc3ccccc3o2)cc1
-13.5%	COc1ccc(Cl)cc1NC(=O)[C@@H]1CCCN1C(=O)c1cccs1
-11.0%	CCCCCCCCOC(=O)/C=C/c1c(C)[nH]c(=O)[nH]c1=O
-17.1%	Cc1nnc(N/N=C/c2ccccc2O)n1N
-0.7%	CCOC(=O)Nc1nc2ccc(Cn3cccc3)cc2[nH]1
-4.2%	CC1(C)CC2CC(C)(CN2S(=O)(=O)c2ccccc2[N+](=O)[O-])C1 (configuration not stated)
-27.2%	O=C(O)c1cc(-c2cccs2)nn1-c1cccc(Cl)c1
4.6%	O=C1c2ccccc2CN1c1ccccc1
-5.7%	O=C(c1cccs1)N(Cc1cccc(Cl)c1)C1CCS(=O)(=O)C1 (configuration not stated)
3.8%	CCN(CCCNc1ncnc2nc[nH]c12)c1cccc(C)c1
10.7%	COc1ccc(NC(=O)c2ccc(OC)cc2)cc1
-19.8%	Cc1ccc(S(=O)(=O)N(C)C)cc1NC(=O)CN1C(=O)NC(Cc2ccccc2)C1=O (configuration not stated)
11.9%	COc1ccc(S(=O)(=O)NCC2CCCN(C(=O)c3cccs3)C2)cc1 (configuration not stated)
-5.8%	CN(Cc1ccccc1F)C(=O)CCCNC(=O)c1ccc(Cl)cc1
-3.7%	C/C(=N\NC(=O)c1ccccc1F)c1ccc2c(c1)Nc1ccccc1S2
-13.0%	CCN(CC)CCNC(=O)c1ccc(NC(=O)c2ccc3c(c2)CCC3)cc1
-1.5%	O=C(NCc1ccccc1)C(=O)NCC(c1ccco1)N1CCOCC1 (configuration not stated)
10.6%	Cc1cc(C(=O)NCc2ccc3c(c2)OCO3)c(C)o1

Following part
VDR inhibitor	mol
-9.2%	COCCN1C(=O)CC(NNC(=O)c2ccc(S(=O)(=O)N3CCCC3)cc2)C1=O (configuration not stated)
-4.6%	O=C(O)c1cn[nH]c1-n1cnnn1
-11.7%	CS(=O)(=O)N(CC(=O)NCc1ccccc1)Cc1ccc(Cl)cc1
-4.3%	O=C(CCCc1ccccc1)NCc1ccccn1
2.2%	O=C(Nc1cccc(C(=O)N2CCN(c3ccc(F)cc3)CC2)c1)c1nsc2ccccc12
12.4%	COc1ccc(C(=O)Nc2cccnc2)cc1OC
-10.7%	CC(C)Cc1nc2sc3c(c2c(=O)n1N)CC(C)(C)OC3
12.5%	CC(C)(Oc1ccc(Cl)cc1)C(=O)N(Cc1ccccc1)c1ccccn1
-11.7%	COc1ccc(C(=O)NNC(=O)CSc2nnc(C(C)C)n2C)cc1
-7.4%	Cc1ccc(S(=O)(=O)Oc2ccccc2N2C(=O)C3C4CCC(C4)C3C2=O)cc1 (configuration not stated)
-0.2%	CCC(CC)C(=O)OCC(=O)Nc1cccc([N+](=O)[O-])c1
-2.3%	Cc1ccc(OCC(=O)NCCO)cc1C
6.6%	COc1ccc(C(C(=O)NCC2CCCO2)N(C(=O)CNC(=O)c2ccco2)c2ccccc2)cc1OC (configuration not stated)
-3.9%	O=C(Oc1cccc(-n2cnnn2)c1)c1ccco1
5.1%	Cc1ccc(-c2nc(SC(C)C(=O)N3CCCC3)n[nH]2)cc1 (configuration not stated)
0.0%	CN(CC1CCOCC1)C(=O)CC1C(=O)NCCN1C/C=C/c1ccccc1 (configuration not stated)
-4.4%	Cc1ccc(C(=O)NCc2nnc(SCC(=O)Nc3sc4c(c3C#N)CCCC4)n2C)cc1
-6.7%	Cc1ccc(Cl)cc1N(CC(=O)NCc1ccccc1)S(C)(=O)=O
-7.0%	CCCCN=C1NC(=O)C(CC(=O)Nc2ccc(Cl)cc2)S1 (configuration not stated)
-18.4%	COc1ccc(S(=O)(=O)N2CCC(C(=O)N3CCc4ccccc4C3)CC2)cc1OC

6 neighbouring records from above:
VDR inhibitor	mol
15.9%	CCOc1ccccc1NC(=O)C1CCCN(c2ncnc3onc(-c4ccc(F)cc4)c23)C1 (configuration not stated)
-9.7%	O=C1C2CC=C(Cl)CC2C(=O)N1CC1Cc2ccccc2CO1 (configuration not stated)
4.0%	CCc1ccc(OCC(=O)NNC(=O)c2cc3ccccc3o2)cc1
-13.5%	COc1ccc(Cl)cc1NC(=O)[C@@H]1CCCN1C(=O)c1cccs1
-11.0%	CCCCCCCCOC(=O)/C=C/c1c(C)[nH]c(=O)[nH]c1=O
-17.1%	Cc1nnc(N/N=C/c2ccccc2O)n1N

The results go on:
VDR inhibitor	mol
-3.1%	COc1ccc([C@@H]2COc3c(ccc4c3C=CC(C)(C)O4)C2)c(OC)c1
-18.2%	O=c1[nH]c(-c2ccc(-c3cccc(Cl)c3)o2)nc2ccccc12
?	O=C(c1ccncc1)N1CCC[C@@]2(CCN(c3ccccc3)C2)C1
11.9%	CC(C)CN1C(=O)c2ccc(NC(=O)C3CC3)cc2C1=O
?	CCOC(=O)c1cnc(SSc2ncc(C(=O)OCC)c(N)n2)nc1N
-18.8%	O=C(Cn1cnc2c(OCc3ccccc3)ncnc21)NCCN1CCOCC1
2.0%	C=CCN1C(=O)C2(OCCCO2)c2cccc(C)c21
11.3%	CN(C(=O)Cn1nnc(-c2cccnc2)n1)C1CCCCC1
-8.1%	Cc1ccccc1CSCc1ccc(C(=O)NCCCN2CCOCC2)o1
-28.2%	CC1=NN(c2ccccc2)C(=O)/C1=C\N(O)c1ccccc1
-12.5%	O=C(NC1CC1)C1CCN(C2CCN(C(=O)Cc3ccc4c(c3)OCO4)CC2)CC1
-3.0%	CCC(C)(C)NC(=O)CN(Cc1ccccc1Cl)C(=O)CCC(=O)Nc1cc(C)ccn1
0.2%	COc1ccc(S(=O)(=O)N(C)C)cc1NC(=O)COC(=O)CC1CCCC1
-23.2%	C=C1CCC[C@]2(C)C[C@H]3OC(=O)C(CNC(CC)CO)[C@H]3CC12 (some centres not stated)
2.2%	COc1ccc(NC(=O)c2ccccc2Cl)c(NC(=O)c2ccco2)c1
-9.7%	Cc1ccc2[nH]c(=O)c3cc(C(=O)N(C)Cc4ccco4)sc3c2c1
?	CSc1ccccc1NC(=O)C1CC(c2ccccc2Cl)=NO1 (configuration not stated)
16.7%	Cc1ccc(NC(=O)COc2ccc(/C=N/NC(=O)CSCc3ccccc3)cc2)cc1
-7.6%	Cc1ccc(C2CC(C(F)F)n3ncc(C(=O)Nc4c(C)nn(Cc5c(F)cccc5Cl)c4C)c3N2)cc1 (configuration not stated)
-12.7%	CC(OC(=O)c1cccs1)C(=O)NCc1ccccc1 (configuration not stated)

(further entries)
VDR inhibitor	mol
1.2%	C/C(=N/OC(=O)c1c(F)cccc1F)c1nccs1
15.2%	CC(=O)c1ccc(NC(=O)C(C)Oc2ccc(N(C)S(=O)(=O)c3ccc(C)cc3)cc2)cc1 (configuration not stated)
-20.3%	COc1ccc(CNC(=O)C(CC(C)C)NS(=O)(=O)c2ccc3c(c2)CCN3C(C)=O)cc1 (configuration not stated)
2.8%	COc1ccc(OCc2cc(C(=O)NCC3(C)COC3)no2)c(Cl)c1
4.4%	CCOc1ccc(-c2cc(C(=O)N3CCN(c4cc(Cl)ccc4C)CC3)c3ccccc3n2)cc1
23.0%	O=C(CS(=O)(=O)c1ccccc1Cl)N1CCOCC1
-6.1%	CC(=O)c1ccc(NC(=O)C2CC2c2ccccc2)cc1 (configuration not stated)
-0.7%	O=C(Nc1ccc(S(=O)(=O)N2CCCC2)cc1)c1ccc(Cl)nc1
14.0%	CC1CCN(C(=O)C2CCN(S(=O)(=O)c3cccc4nonc34)CC2)CC1
19.8%	CCC(=O)Nc1c(OC(=O)CC)ccc2c(C)cc(=O)oc12
-12.4%	CCc1nnc(NC(=O)CSc2nnc(C(C)NC(=O)c3ccccc3F)n2C)s1 (configuration not stated)
-1.2%	Cc1ccc(C(=O)C(O)C(c2ccc(C)cc2)N2CCCCC2)cc1 (configuration not stated)
-8.6%	CCOc1ccc(NC(=O)C2CC(=O)N3CCCN=C3S2)cc1 (configuration not stated)
-19.4%	O=C(CCNC(=O)c1ccccc1Cl)NCCCSc1ccccc1
-9.7%	CCOC(=O)C1=C(C)NC(=O)C(C#N)C1c1ccco1 (configuration not stated)
-7.9%	Cc1cccc(OCC(=O)Nc2cccc(C(=O)OCc3cc(=O)n4c(C)csc4n3)c2)c1
-9.7%	C=CC[C@H](CC(=O)N(CCO)Cc1ccccc1)C(=O)NCCOC(=O)[C@@H](CC=C)Cc1ccc(F)cc1
6.3%	Cc1ccc(-c2nn3c(=O)cc(CN4CCN(S(=O)(=O)c5ccc(Cl)cc5)CC4)nc3s2)cc1
-4.0%	Cn1c(=O)c2c(nc(NCc3ccccc3)n2C)n(C)c1=O
-9.3%	COc1ccc(CNC(=O)CCCn2c(SCC#N)nc3cc4c(cc3c2=O)OCO4)cc1

Reformatted: 3 of the compounds above
Structure,VDR inhibitor
CCC(=O)Nc1c(OC(=O)CC)ccc2c(C)cc(=O)oc12,19.8%
CCc1nnc(NC(=O)CSc2nnc(C(C)NC(=O)c3ccccc3F)n2C)s1 (configuration not stated),-12.4%
Cc1ccc(C(=O)C(O)C(c2ccc(C)cc2)N2CCCCC2)cc1 (configuration not stated),-1.2%

Other structures follow.
VDR inhibitor	mol
6.6%	CN(C)C(=O)COC(=O)[C@H](Cc1ccccc1)NC(=O)c1ccco1
15.2%	O=C(Nc1ccc(Cl)cc1)c1ccc(-n2cnnc2)cc1
7.8%	CCNC(=S)NNC(=O)c1ccc(=O)n(Cc2ccccc2)c1
9.6%	COc1ccc(CCNC(=O)c2c(O)nc3ccccn3c2=O)cc1OC
-0.5%	COc1cccc(-c2cc(C(=O)NCC3CCCO3)on2)c1 (configuration not stated)
-18.5%	C/C(=N\N=C(N)N)c1cc(Cl)ccc1Cl
8.4%	O=C(CNC(=O)c1ccccc1)NCC(=O)OCC(=O)c1ccc(F)cc1
6.4%	COc1ccc(-c2cc(C(F)(F)F)n3ncc(-c4ccccc4)c3n2)cc1
17.5%	O=C(Cn1cc(C(=O)c2ccco2)c2ccccc21)NCc1ccco1
11.0%	COc1ccc(Cl)cc1NC(=O)c1cc2nc(-c3ccc4c(c3)OCO4)cc(C(F)(F)F)n2n1
-11.7%	Cc1ccc2nc(-c3ccc(NC(=O)C(F)(F)F)cc3)sc2c1
-6.5%	Cc1ccccc1-n1c(=O)cc(N2CCc3ccccc32)[nH]c1=O
15.8%	Cc1ccccc1OCC(=O)NNC(=O)c1ccc(-c2ccccc2)cc1
-19.9%	COc1ccc(S(=O)(=O)NCc2ccncc2)cc1NC(=O)c1ccc(Cl)cc1
11.5%	CCOc1ccc(NC(=O)C2CCCN(c3nc(C)cc(C)n3)C2)cc1 (configuration not stated)
3.2%	O=C(CCn1c(=O)c2cccn2c2ccc(F)cc21)NCCc1ccccc1Cl
-12.4%	O=C(NCC1CCCO1)c1ccc2ccccc2n1 (configuration not stated)
-10.5%	O=c1cc(COc2ccc(Cl)cc2Cl)nc2scc(-c3ccccc3)n12
2.1%	CCN1CCN(CC(=O)c2c(C)n(C)c3ccc(OC)cc23)CC1
12.7%	O=C(O)CNC(=O)c1ccc2c(c1)OCCO2

More entries follow.
VDR inhibitor	mol
-3.3%	CCOCCCN(C(=O)c1snc(C(N)=O)c1N)C(C(=O)NC1CCCC1)c1ccc(O)cc1 (configuration not stated)
-8.6%	CCc1ccccc1Nc1ccc(C(=O)O)cc1N
0.3%	Cc1nnc(SCC(=O)N(CC(C)C)c2c(N)n(Cc3ccccc3)c(=O)[nH]c2=O)n1N
-21.2%	Cc1ccc(/C=N/NC(=O)c2cc(-c3cccnc3)nc3ccccc23)cc1
-20.4%	Cc1ccc(-c2nc(=O)[nH]c3ccccc23)cc1
-4.2%	Cc1ccccc1OCC(=O)N1CCCCCCC1
?	O=C(Cc1ccccc1)NCC(=O)N1CCN(Cc2cccc(Cl)c2)CC1
-7.0%	COc1ccc(C2/C=C\CN(Cc3ccc(N(C)C)cc3)CC(=O)N2Cc2ccc(F)cc2)cc1 (configuration not stated)
-21.9%	CCOC(=O)NC1(C(F)(F)F)NC(=O)N(c2ccc(F)cc2)C1=O (configuration not stated)
-29.5%	CC1(C)CC(=O)C(CC2=C(O)CC(C)(C)CC2=O)C(=O)C1
5.9%	COc1ccc(CNCCCn2cnc3c(OCc4ccccc4)ncnc32)cc1
8.7%	COc1ccc2[nH]c(C(=O)Nc3ncc(C)cc3Br)cc2c1
-6.9%	CCN(CC)C(=O)COc1ccc(/C=C(\C#N)S(=O)(=O)c2ccccc2)cc1OC
-2.8%	COc1ccc(C)cc1S(=O)(=O)N(CC(=O)NCc1ccco1)c1ccc(C)cc1
-9.2%	O=C(CC1C(=O)NCCN1Cc1cccc(Oc2ccccc2)c1)NCCCn1cccn1 (configuration not stated)
2.8%	O=C(N/N=C/c1ccc(-c2ccc(S(=O)(=O)Nc3ncccn3)cc2)o1)c1cc2ccccc2cc1O
19.4%	CC(C)(C)c1ccc(/C=N/NC(=O)C[n+]2ccccc2)cc1
8.6%	COc1cccc(S(=O)(=O)NCc2ccc(C(=O)NCC3CCCO3)cc2)c1 (configuration not stated)
-1.9%	C[C@H](CO)N1C[C@H](C)[C@@H](CN(C)C(=O)Nc2ccc(C(F)(F)F)cc2)Oc2c(NC(=O)NC3CCCCC3)cccc2C1=O
31.4%[activator]	COc1ccc(OC)c(NC(=O)CSCc2cnn(-c3ccccc3)c2-n2cccc2)c1
-14.0%	N#Cc1c(/N=C/c2ccc(-c3ccccc3C(=O)O)o2)sc2c1CCCC2
-15.8%	COc1cc(OC)c(NC(=O)NC(C)c2c(-n3cccc3)sc(C)c2C)cc1Cl (configuration not stated)
-20.3%	C=C(C)c1cccc(C(C)(C)NC(=O)Nc2ccc(Cl)cn2)c1

A portion of the library (hit frequency here may not be typical).
